gsp antag: antagonists of gsp mutant (McCune-Albright syndrome) | gsp-mutant cells, cAMP HTRF, 30 min; control for the full effect not named in the record | Potency, µM (highest dose often 76.9 µM), inactives show top-dose activity change, negative = inhibition, hits mostly inhibitors | actives 0.4% (n = 340,000) | AID 624288; active = falling curve of any shape with a large fitted effect; inconclusive = falling curve, mostly with a smaller effect; inactive = flat or rising curve; cell line not stated here;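 note: intracellular cAMP measured with PDE inhibitor Ro 20-1724 present during compound exposure; potency is the fitted concentration of half-maximal effect; % is set by controls: 0 for no effect and ±100 for the full control effect; nearly all actives have a fitted effect of over 65% in size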
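Cells in G418 medium, seeded 16-24 h, 37C; buffer exchange to DPBS + 1 mM CaCl2, 0.5 mM MgCl2, 0.05% BSA; cpds in DMSO + […] (300 uM stock), 30 min 37C; HTRF cAMP detection.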
gsp agonist: agonists of gsp mutant (McCune-Albright syndrome); gsp mutant cells, cAMP HTRF, 30 min; control for the full effect not named in the record; actives 0.13% (n = 340,000); Potency, µM (doses to about 76.9 µM), inactives show at the top dose activation (cAMP increase), hits mostly activators; active = well fitted activation curve with a large enough effect; inconclusive = small, poorly fitted or top-dose-only effect, or another doubt; inactive = no such curve, though single readings can be large or run the other way; cell line not stated here;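 note: phosphodiesterase inhibitor Ro 20-1724 added with compounds to block cAMP breakdown; potency is the fitted concentration of half-maximal effect; nearly all actives have a fitted effect of over 60% in size; about a fifth of the inactives were tested at one dose only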
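Cells in DMEM/10% FBS with G418 were pretreated with compounds in DMSO plus […] (300 uM stock) for 30 min at 37C. cAMP was measured by HTRF (cAMP-d2 plus anti-cAMP antibody-K) after 30 min at room temperature.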
Sfp inh: Sfp phosphopantetheinyl transferase inhibition; Q9F4F7; Biochemical Sfp PPTase activity, qHTS; Potency, µM, without a hit: max response, negative = inhibition, hits mostly inhibitors; actives 3.5% (n = 310,000); active = well fitted inhibition curve with a large enough effect; inconclusive = small, poorly fitted or top-dose-only effect, or another doubt; inactive = no such curve, though single readings can be large or run the other way;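 note: the enzyme is Sfp with the accession as filed and its product quenches rhodamine fluorescence; potency is the fitted concentration of half-maximal effect; 0% = enzyme reaction without inhibitor and -100% = no enzyme wells; top concentration of the series not given in the record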
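Fluorescence-quenching assay: 15 nM Sfp-PPTase preincubated 15 min at room temperature with compound, then 5 uM rhodamine-CoA and 12.5 uM BHQ-2-labelled YbbR peptide added. Fluorescence (ex 525/em 598 nm) read at start and after 30 min; difference gives rate.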
ClpP mod: qHTS Assay for Activators of ClpP. Potency, µM (titrated, usually from 57.5 µM), for the others: at the top dose activity change, negative = active. actives 1.9% (n = 340,000). purified B. subtilis ClpP, FRET peptide cleavage, 20 min; active = well fitted falling curve with a large enough effect; inconclusive = small, poorly fitted or top-dose-only effect; inactive = no such curve, though single readings can be large or run the other way; note: potency is the fitted concentration of half-maximal effect; the source files actives as falling curves though it sought activators and does not explain the sign; nearly all actives have a fitted effect of over 65% in size; many hits overshoot -100%
Target sequence (P80244 whole entry, looked up): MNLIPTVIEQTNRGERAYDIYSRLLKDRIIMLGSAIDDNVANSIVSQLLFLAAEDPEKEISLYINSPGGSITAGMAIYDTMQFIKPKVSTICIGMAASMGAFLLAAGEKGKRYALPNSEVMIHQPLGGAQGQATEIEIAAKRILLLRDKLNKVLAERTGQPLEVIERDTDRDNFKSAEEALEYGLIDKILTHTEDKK
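FRET quenching reversal measured ClpP activation: 10 microg/mL B. subtilis ClpP at pH 8 with the FRET-FV decapeptide, read at 430 nm after 320 nm excitation. The 20-min minus 0-min signal was scaled between DMSO/no-enzyme wells and ADEP (5.8 microM final).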
TRPV1 potentiator: potentiators of human vanilloid receptor 1 (TRPV1). Q8NER1. TRPV1-expressing cells, Fluo-8 calcium influx, capsaicin EC20 potentiation; host cell line not named in the record; control for the full effect not named in the record. potentiation, % at 8.33 µM. actives 0.02% (n = 320,000); active means potentiation above 80%; inconclusive means 30% to 80%; inactive means below 30%; note: 0% is about no effect
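Fluo-8 calcium influx in TRPV1-expressing cells, kinetic read (ex 480/em 520 nm). Compound added and read 3 min for agonist activity, followed by capsaicin at EC20 final and 2 min further read for enhancement.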
TRPML1 blocker: inhibitors of human TRPML1 channel; activity change, negative = inhibition, % (test concentration not listed); TRPML1-inducible cells, Ca2+ dye fluorescence, FDSS; stronger effect = lower value; inhibition of EC80 agonist-evoked calcium signal; Q9GZU1; actives 0.02% (n = 390,000); in the data active means activity change below about -50%; inconclusive means about -30% to -50%; inactive means above about -30%;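 note: stimulus is agonist 54-4 at its EC80 concentration; % is set by controls: 0 for no effect and ±100 for the full control effect; compound concentration not given in the record; the text of the record puts the active cut at -80%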
Target sequence (Q9GZU1 whole entry, looked up): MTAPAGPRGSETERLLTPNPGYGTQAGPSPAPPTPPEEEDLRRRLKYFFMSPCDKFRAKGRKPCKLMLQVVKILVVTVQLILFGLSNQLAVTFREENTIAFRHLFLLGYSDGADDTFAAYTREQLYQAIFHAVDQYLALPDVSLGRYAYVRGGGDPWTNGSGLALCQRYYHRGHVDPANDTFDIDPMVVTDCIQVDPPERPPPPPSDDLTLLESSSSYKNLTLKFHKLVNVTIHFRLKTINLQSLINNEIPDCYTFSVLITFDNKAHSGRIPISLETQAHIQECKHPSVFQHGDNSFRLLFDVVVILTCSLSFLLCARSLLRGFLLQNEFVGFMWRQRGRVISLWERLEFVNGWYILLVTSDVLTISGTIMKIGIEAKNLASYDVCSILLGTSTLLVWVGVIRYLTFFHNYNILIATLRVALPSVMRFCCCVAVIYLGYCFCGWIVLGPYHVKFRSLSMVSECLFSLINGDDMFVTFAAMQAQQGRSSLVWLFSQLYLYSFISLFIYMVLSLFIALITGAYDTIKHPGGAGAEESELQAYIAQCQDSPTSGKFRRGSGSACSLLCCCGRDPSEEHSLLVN
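Tet-induced TRPML1-DL cells loaded with Ca8 no-wash calcium dye were read kinetically on FDSS. Compound addition was followed by EC80 agonist 54-4 (4 uM final); inhibition was read over 110 s.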
Menin-MLL FL inh: inhibitors of human menin-MLL interaction, wild-type MLL peptide. Fluorescence polarization, fluorescein-MLL peptide displacement from menin. FP activity change, % at 61.4 µM. 290,000 tested, under 10 active. AID 1766; inconclusive = falling polarisation curve, or a change in total fluorescence; inactive = total fluorescence flat and polarisation flat or rising; no compound was filed as active; the % refers to the polarisation; negative = inhibition;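 note: % of control where 0% means no effect; inhibitors lower the polarisation; unlabelled MLL peptide was the positive control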
Starred values were filed as active, the others as inactive; ? = inconclusive; · = not tested or not shown; [ ] = dose if it differs, or a comment. Outcome played no part in choosing rows. About 4.9% of those tested had a hit in this group.

SMILES	gsp antag	gsp agonist	Sfp inh	ClpP mod	TRPV1 potentiator	TRPML1 blocker	Menin-MLL FL inh
CC(=O)/C=C1/SC(CC(=O)O)C(=O)N1c1ccccc1 (stereo not given)	8.9%	-17.4%	4.5%	-0.5%	0.4	40.0	1.7
O=C(Nc1ccc(NC(=O)C2CC2)cc1)c1ccco1	10.0%	-50.3%[inhibitor]	6.8%	·	20.3	2.6	-7.5
Clc1ccc(-c2nc(C3CCCCC3)no2)cc1	·	7.1%[15.4 µM]	14.0%	·	27.9	0.3	-2.9
CCOc1ccccc1NC(=O)CCS(=O)(=O)c1ccc2c(c1)CCN2C(C)=O	0.1%	12.0%	6.7%	1.2%	?	-0.5	2.3
O=C(C1CC1)N1CCc2cc(Br)cc(S(=O)(=O)NCCN3CCOCC3)c21	-6.4%	-0.5%	-2.2%	1.6%	-5.2	-3.7	2.1
CCCNC(=O)CSc1nc2ccccc2c(=O)n1CCC	3.6%	-2.4%	18.4%	·	5.0	-21.3	2.6
CN(C)S(=O)(=O)c1cccc(NC(=O)COC(=O)CCOc2ccccc2)c1	-22.5%	16.1%[15.4 µM]	6.0%	0.0%	-2.2	-15.1	0.2
CCN(CC)CC#CCC(O)(c1ccccc1)c1ccc(Br)cc1 (stereo not given)	13.0%	-3.2%	-15.1%	0.4%	9.0	19.8	0.6
CCC(C)N1CCN(C(=O)c2cccs2)CC1 (stereo not given)	10.2%	-44.0%[inhibitor]	·	0.5%	·	-6.9	·
O=C(N/N=C/C=C/c1ccccc1[N+](=O)[O-])c1cccs1	-8.4%	22.8%	-6.9%	-16.3%	-11.5	8.4	6.7
Cc1ccc(CNC(=O)C(=O)c2cn(CC(=O)N3CCCC3)c3ccccc23)cc1	-14.8%	21.5%	13.1%	-1.9%	11.6	10.5	·
CCCCN(C(=O)Cc1cccc(F)c1)c1c(N)n(CCC)c(=O)[nH]c1=O	11.8%	18.0%	7.4%	·	9.7	4.2	5.4
O=C(CN1CC[n+]2c(-c3ccccc3)csc21)c1ccc(Br)cc1	1.1%	-3.4%	?	-0.8%	?	8.4	-4.7
CN1CCN(C(=O)c2ccc3c(=O)n(-c4ccc(F)cc4)c(=S)[nH]c3c2)CC1	-7.3%	-1.0%[15.4 µM]	-27.1%	0.9%	12.5	23.6	0.1
Cc1nnsc1C(=O)NC(C)C12CC3CC(CC(C3)C1)C2 (stereo not given)	-5.7%	-6.4%	17.4%	-7.9%	-13.0	3.9	0.1
O=C1C2C(C(=O)N1c1nccs1)C1C=CC2C12CC2 (stereo not given)	-20.3%	-35.9%[inhibitor]	22.5%	-1.3%	-11.4	-14.2	-2.3
CC1C=CCC2C(=O)N(c3ccccc3OC(=O)c3cccs3)C(=O)C12 (stereo not given)	13.5%	26.0%	16.7%	-0.4%	18.2	1.6	-5.5
COc1ccc(/C=C(/C(=O)Nc2ccccc2C(=O)N2CCCC2)c2ccccc2)cc1	-18.4%	-23.0%	-21.8%	1.0%	-16.2	-1.6	3.8
CCCN(CCC)CCNc1c(NC2CCN(C(=O)OCC)CC2)c(=O)c1=O	8.9%	5.3%	-0.9%	1.1%	-3.6	-25.4	0.8
CC[C@@H]1CCCCc2ccccc2[C@H](C(=O)C[C@H](O)CC(C)=O)OC1=O	-3.0%	·	·	-1.7%	·	-12.3	·
Cc1cccc(C(=O)N(Cc2cccs2)C2CCS(=O)(=O)C2)c1 (stereo not given)	9.2%	-8.0%	12.0%	-0.3%	-6.6	0.0	-1.4
CCOC(=O)N1CCN(C(=O)/C(=C/c2cccc3ccccc23)NC(=O)c2ccc(OC)c(OC)c2)CC1	-16.7%	-69.9%[inhibitor]	-17.8%	0.3%	6.5	34.6	2.6
O=C(Nc1ccccc1)c1ccccc1NC(=O)C1CCCCC1	-9.1%	-1.0%	?	-0.6%	-13.0	-4.4	1.6
CCOc1ccc(C(C)NC(=S)NCc2ccc(F)cc2)cc1 (stereo not given)	-14.0%	26.5%	16.8%	0.0%	-9.5	-16.5	-2.6
COc1ccc(-n2cc(CN(C)C(C)c3ccncn3)c(-c3cccc(F)c3)n2)cc1 (stereo not given)	?	-4.8%	-21.1%	-9.3%	-6.3	45.0	1.6
CCCc1c(C)nc(N2CCN(c3ccccc3F)CC2)[nH]c1=O	6.4%	-8.9%	11.4%	-1.3%	-6.4	26.6	-1.9
CCOc1ccc(N=C2NC(=O)C(CC(=O)Nc3ccccc3)S2)cc1 (stereo not given)	-4.7%	-23.8%	16.6%	1.9%	5.9	-20.2	0.8
O=c1oc(Nc2cccc(Cl)c2)nc2ccccc12	13.6%	2.7%[15.4 µM]	-1.7%	0.6%	3.2	-7.6	-4.3
O=C1C(=Cc2cccs2)C(=O)c2ccccc21	-7.1%	-14.4%	5.6%	-3.5%	3.0	-2.2	-4.4
Cc1ccc(NC(=O)c2ccncc2)cc1[N+](=O)[O-]	-7.0%	2.8%	-10.4%	-1.5%	12.3	26.2	5.9
Cc1nnc(N/N=C/c2ccccc2F)n1N	0.3%	?	-7.3%	-0.3%	11.1	22.4	2.2
Cc1[nH]c2ccccc2c1C(O)CN1CCC2(CC1)OCCO2 (stereo not given)	2.4%	-7.1%	15.3%	-3.3%	2.6	84.7	2.1
COc1ccc(S(=O)(=O)NCc2ccccc2)cc1Br	·	·	8.9%	·	-1.7	·	0.3
c1cncc(-c2nnc3n2CCC3)c1	11.8%	-8.1%	0.2%	-1.3%	22.6	31.7	0.6
OC1COC(O)C(O)C1O (stereo not given)	-2.9%	·	·	0.7%	-19.9	-2.2	·
COc1ccc(NC(=S)NC2CCCCC2)cn1	7.2%	1.2%[15.4 µM]	3.9%	·	0.4	5.4	-4.9
O=C(Nc1ccc(CN2CCS(=O)(=O)CC2)cc1)c1ccccc1	9.7%	0.5%	-1.0%	-0.9%	-2.5	-15.0	-0.1
CC(NC(=O)COC(=O)c1ccc2c(=O)n3c(nc2c1)CCCCC3)c1ccc(F)cc1 (stereo not given)	·	-52.0%[inhibitor]	·	-5.5%	·	3.3	·
c1ccc(-c2nc(-c3ccncc3)n[nH]2)nc1	?	1.3%[15.4 µM]	14.1µM*	-0.4%	3.2	-19.0	-0.8
COc1ccc(CC(=O)NC2CCSc3ccccc32)cc1OC (stereo not given)	-6.7%	-16.1%	16.0%	0.7%	-7.4	0.3	1.6
Cc1cc(C)nc(/N=C(/NC(=O)Nc2ccc(Cl)c(Cl)c2)Nc2cccc(Cl)c2)n1	7.4%	0.3%[15.4 µM]	13.8%	-6.0%	4.6	7.0	3.4
O=C(OCCc1cc2ccccc2c(=O)o1)c1ccc2c(c1)OCO2	-14.2%	·	·	-8.0%	-41.4	10.7	·
Oc1ccc(/C(Cc2ccccn2)=N\Nc2ccccc2)c(O)c1	-2.3%	4.8%[15.4 µM]	-9.7%	·	-0.2	-8.9	-2.2
CCOC(=O)C1=C(CNCCc2ccc(Cl)cc2)NC(=O)NC1c1ccc2c(c1)OCO2 (stereo not given)	-1.8%	1.0%	5.2%	-3.0%	·	14.3	-1.2
COC(=O)c1cc(NC(=S)N2CCN(c3ccccn3)CC2)cc(C(=O)OC)c1	-3.8%	-4.7%	18.7%	·	28.0	-4.6	1.6
CCOC(=O)C1CCN(c2ncnc3c2oc2ccc(Cl)cc23)CC1	-8.6%	28.5%	-21.9%	?	-3.1	26.1	-3.6
Cc1ccc(S(=O)(=O)N2CCN(C(=O)c3ccc4c(c3)OCO4)CC2)cc1	2.4%	10.7%	22.1%	·	3.4	1.2	·
CN1C(=O)CC(C(=O)O)SC1=Nc1cc(Cl)c(O)c(Cl)c1 (stereo not given)	2.2%	0.0%	-18.4%	-4.4%	17.0	9.3	2.5
Cc1ccc(Cl)cc1N1CCN(C(=O)C2CCN(S(=O)(=O)c3cccnc3)CC2)CC1	?	-0.9%	2.9%	-2.3%	11.4	4.0	2.2
Cc1ccc(NC(=O)CS(=O)CC(=O)N(c2ccc(C)cc2)C(C)C(=O)NC2CCCCC2)cc1 (stereo not given)	4.2%	6.4%	-2.0%	-5.0%	1.1	-10.2	0.2

Next part:
SMILES	gsp antag	gsp agonist	Sfp inh	ClpP mod	TRPV1 potentiator	TRPML1 blocker	Menin-MLL FL inh
NS(=O)(=O)c1ccc(CCNC(=O)C(=O)c2cn(CC(=O)N3CCOCC3)c3ccccc23)cc1	4.3%	?	7.2%	0.1%	-2.6	-12.0	·
N#CCCN(C(=O)COC(=O)CCc1nc2ccccc2c(=O)[nH]1)c1ccc(F)cc1	-1.8%	-1.5%	·	-2.8%	-8.0	-25.2	·
CC1CCCC(NS(=O)(=O)c2cc3c(cc2Cl)NC(=O)CO3)C1C (stereo not given)	4.1%	?	3.2%	-0.5%	-9.3	-0.6	3.9
Cc1cccc2cc3c(N)c(C(=O)N4CCCc5ccccc54)sc3nc12	14.7%	22.6%	?	-0.2%	-3.4	-9.8	?
N#Cc1cccc(NC(=O)CC2CCCCC2)c1	-10.2%	-25.9%	3.1%	1.3%	-28.1	-10.7	-8.0
O=C(COc1ccc([N+](=O)[O-])cc1Cl)NCCc1ccccc1	-15.6%	9.1%	-13.4%	1.8%	?	-12.1	9.8
Cc1cc(C)[n+](C)n1CC(O)Cn1c2ccccc2c2ccccc21 (stereo not given)	7.1%	1.1%[15.4 µM]	-0.7%	·	?	-17.9	-3.7
Cc1ccc([N+](=O)[O-])cc1S(=O)(=O)Nc1cccc(S(=O)(=O)NC2=NCCC2)c1	1.1%	1.6%[15.4 µM]	·	0.9%	·	4.9	·
CC(=O)c1cccc(NC(=S)NCCc2ccc(Cl)cc2)c1	-10.2%	7.2%[15.4 µM]	6.9%	-12.1%	5.0	12.0	2.6
O=C(CNC(=O)c1ccc(Br)o1)NNC(=O)c1ccccc1	15.8%	-31.4%[inhibitor]	·	-6.0%	20.1	-5.1	·
Cn1nc(C(C)(C)C)cc1C(=O)NNC(=O)c1ccc(C(F)(F)F)cc1	6.0%	9.0%	22.8%	-1.3%	-4.8	-3.5	3.6
Cc1c2c(nc3ccccc13)CCC(C(C)(C)C)C2 (stereo not given)	-15.1%	22.9%[15.4 µM]	-19.0%	·	-14.7	17.9	-0.4
COc1ccc(CNC(=O)Cn2ncn3cccc3c2=O)cc1	·	·	-11.7%	·	10.2	·	7.0
Cc1cc(/C=N\NC(=O)COc2cccc3cccnc23)c(C)n1-c1ccc(Br)cc1	1.6%	?	-13.4%	-1.6%	1.2	5.7	13.8

Screening results from PubChem.
